KCNQ2 pot = KCNQ2 (rat) channel potentiation; actives 0.54% (n = 310,000); CHO-K1 KCNQ2, FluxOR thallium flux fluorescence; stronger effect = higher value; O88943; AID 2239; B-score at 10 µM;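 active = fluorescence ratio B-score at least 3 SD of library B-scores, with initial fluorescence B-score within 3 SD, cut at about 5.3 in these data; same plate scores as AID 2156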;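 also: B-score of peak minus minimum over baseline fluorescence ratio after K+ and Tl+ stimulus; positive B-score means potentiation of KCNQ2 with more thallium influx and brighter signal; only the inactives scoring about 0 or higher are listed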
Target sequence (O88943 whole entry, looked up): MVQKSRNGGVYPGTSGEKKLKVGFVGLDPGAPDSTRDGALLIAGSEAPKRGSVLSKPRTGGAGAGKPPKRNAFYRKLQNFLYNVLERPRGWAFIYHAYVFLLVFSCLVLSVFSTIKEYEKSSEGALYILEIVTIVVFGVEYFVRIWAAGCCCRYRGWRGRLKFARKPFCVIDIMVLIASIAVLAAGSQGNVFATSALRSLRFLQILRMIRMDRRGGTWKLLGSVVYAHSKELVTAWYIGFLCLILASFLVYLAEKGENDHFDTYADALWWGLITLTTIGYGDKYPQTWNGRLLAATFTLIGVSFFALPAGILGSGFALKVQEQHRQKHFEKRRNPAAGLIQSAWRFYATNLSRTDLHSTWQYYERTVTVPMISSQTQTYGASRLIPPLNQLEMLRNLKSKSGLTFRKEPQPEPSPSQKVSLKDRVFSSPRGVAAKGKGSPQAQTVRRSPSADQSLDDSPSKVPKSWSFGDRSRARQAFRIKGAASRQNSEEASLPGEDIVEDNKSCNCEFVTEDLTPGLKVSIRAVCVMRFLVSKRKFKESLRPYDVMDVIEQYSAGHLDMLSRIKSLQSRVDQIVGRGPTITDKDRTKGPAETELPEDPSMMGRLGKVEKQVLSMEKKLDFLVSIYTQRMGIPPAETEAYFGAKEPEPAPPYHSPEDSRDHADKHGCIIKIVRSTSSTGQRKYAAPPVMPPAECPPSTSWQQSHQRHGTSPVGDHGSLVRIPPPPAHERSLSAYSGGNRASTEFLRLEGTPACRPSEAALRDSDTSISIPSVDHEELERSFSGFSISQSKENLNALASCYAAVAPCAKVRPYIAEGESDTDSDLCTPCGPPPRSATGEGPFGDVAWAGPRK
KCNQ2 pot baseline = second read-out of KCNQ2 pot, no call of its own (marks repeat the call); B-score; compound at 10 µM; measured here: initial fluorescence intensity artifact check;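 brightness before thallium and not channel activity; 0 = typical well and far values either way flag optical interference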
The depositor's hits bear a star. Only part of the results is shown, so the mix of outcomes need not match the whole.

The line under a structure holds: KCNQ2 pot	KCNQ2 pot baseline
- CCSc1nc2c(c(=O)[nH]1)C(c1ccc(C)cc1)C1=C(CCCC1=O)N2 (stereo not drawn)
  1.4	0.34
- O=C(CSc1cccc[n+]1[O-])Nc1ccc(C(F)(F)F)cc1[N+](=O)[O-]
  1.2	0.51
- c1ccc(CNc2ncnc3c2cnn3Cc2ccccc2)cc1
  0.23	-0.21
- COC(=O)c1ccc(-c2ccc(/C=N/NC(=O)Cc3nnc(N)s3)o2)cc1
  0.12	2.7
- CC(C)CN(C(=O)COC(=O)/C=C/c1cccs1)c1c(N)n(Cc2ccccc2)c(=O)[nH]c1=O
  0.85	0.43
- Nc1nc2ccc(O)cc2s1
  0.37	-0.33
- COc1ccc(/C(O)=C/C(=O)C(=O)Nc2c(C)n(C)n(-c3ccccc3)c2=O)cc1
  0.42	-0.06
- O=C(c1cc(Br)ccc1Cl)N1CCN(c2ccc(N3CCOCC3)nn2)CC1
  0.03	-0.59
- NNC(=O)c1ccc(COc2cccc3cccnc23)cc1
  0.13	0.2
- Cc1ccc(CN(c2ccc(C(=O)Nc3cccnc3)cc2)S(C)(=O)=O)cc1
  0.35	-0.18
- O=C(O)c1cccc(Cn2cccn2)c1
  1.1	0.66
- CC(NC(=O)c1cn(C(C)c2ccccc2F)nn1)c1ccncc1 (stereo not drawn)
  0.51	2
- COc1ccc2cc(C#N)c(Cl)nc2c1
  0.24	0.86
- CCOc1cc(S(=O)(=O)Nc2cc(C)cc(C)c2)ccc1Cl
  0.78	-0.47
- CCOC(=O)COc1ccc2nsnc2c1Cl
  0.43	-1.6
- CC(=O)N1c2ccc(S(=O)(=O)NCCC(=O)Nc3ccc(OC(F)(F)F)cc3)cc2CC1C (stereo not drawn)
  0.73	-1.9
- Cc1c(C(=O)N2CCN(c3ccccn3)CC2)cccc1[N+](=O)[O-]
  2.1	-0.64
- COc1cccc(NC(=O)NC2(C(=O)N3CCN(C)CC3)CCCCC2)c1
  0.32	1.3
- Cc1ccc(NC(=S)NCCSc2ccc(Cl)cc2)cc1
  3.2	-0.71
- O=C(NCc1cccs1)c1cccnc1SCCS(=O)(=O)c1ccc(C(F)(F)F)cn1
  1.4	0.07
- CCCc1nnc(NC(=O)c2cn(CC)c3cc(N4CCN(C)CC4)c(F)cc3c2=O)s1
  0.63	0.81
- COc1c(C(=O)Nc2ccc3[nH]c(=O)[nH]c3c2)cc2ccccc2c1Br
  0.85	-0.01
- CSc1sc(-c2nnc(SCC(=O)Nc3ccccc3)n2C)c2c1C=CCC2
  0.43	-1.1
- CCOC(=O)c1sc(NC(=O)c2ccc(S(=O)(=O)N3CCOCC3)cc2)cc1C
  0.7	-2.3
- O=C(NCc1ccc(Cl)cc1)c1cccc(NC(=O)c2ccccc2)c1
  0.99	0.02
- CCOC(=O)c1ccccc1NC(=O)CC1SC(=NC)N(C)C1=O (stereo not drawn)
  0.66	-0.03
- C=CCNC(=S)Nc1cc(S(=O)(=O)N2CCOCC2)ccc1-n1cncn1
  0.2	1.8
- Cc1ccc(C)c(SCC(=O)Nc2oc(C)c3c(C)n[nH]c(=O)c23)c1
  3.2	-1.2
- CCCn1c(SCC(=O)N2CCc3ccccc32)nnc1-c1ccco1
  0.34	1.1
- Cc1nn(C)c(Cl)c1CN1CCN(C2CCCC2)C(CCO)C1 (stereo not drawn)
  0.78	0.48

The list continues:
The line under a structure holds: KCNQ2 pot	KCNQ2 pot baseline
- Cc1ccccc1N1CCN(C(=S)c2ccc(-c3cccc([N+](=O)[O-])c3)o2)CC1
  2.2	-0.31
- CSCCC(NS(=O)(=O)c1ccc2c(c1)oc(=O)n2C)C(=O)NCc1cccs1 (stereo not drawn)
  0.71	-0.51
- O=C(N/N=C/c1ccccn1)c1cc(-c2ccc(Br)s2)[nH]n1
  1.5	2.1
- Cc1nn(-c2ccccc2)c(C)c1C(=O)OCC(=O)NC(=O)NC1CCCCC1
  0.36	0.25
- Cc1sc2ncnc(Nc3ccccc3)c2c1C
  0.56	-0.4
- Cc1ccc(NC(=O)N2CCN(C(=O)c3ccco3)CC2)cc1Cl
  0.17	-1.4
- O=C(Nc1ccc(S(=O)(=O)Nc2nccs2)cc1)c1cccc(N2C(=O)c3ccccc3C2=O)c1
  0.12	-0.25
- c1ccc(-c2ccccc2OCCOCCN2CCNCC2)cc1
  0.03	0.67
- Cn1nc([N+](=O)[O-])nc1Oc1ccccc1N
  0.96	0.84
- O=C(c1ccco1)N1CCN(c2cc(N3CCOCC3)c(F)cc2[N+](=O)[O-])CC1
  0.24	0.93
- Cc1ccc(NC(=O)Nc2cc(-c3ccccc3)nn2C)cc1Cl
  0.9	0.19
- Cc1ccccc1OCc1nnc(SCC(=O)O)n1-c1ccccc1
  0.78	-0.01
- CCOc1nc(NCc2ccco2)nc(Nc2ccccc2F)n1
  0.05	0.68
- CN(C)c1ccc(N=Nc2ccc(C(=O)O)cc2)cc1
  0.57	-1.2
- Cc1cc(C(=O)CSc2n[nH]c(N)n2)c(C)n1-c1cc(F)ccc1F
  0.22	1
- O=C(Nc1cccc(O)c1)c1ccc(C(=O)c2ccccc2)o1
  0.25	0.83
- COc1ccc(CN(CCN)C2CC(C)N(C)CC2C)cc1 (stereo not drawn)
  0.94	0.06
- C1CC(CN2CCOCC2)CN(Cc2nc(CC3CC3)no2)C1 (stereo not drawn)
  1.2	0.26
- Cc1ccc(NC(=O)c2ccc(-n3cccn3)c([N+](=O)[O-])c2)cc1C
  1.4	1
- CCOc1cc(N2CCOCC2)c(OCC)cc1NC(=O)CC12CC3CC(CC(C3)C1)C2
  23*	0.63*
- O=C(Nc1cnccn1)Nc1cccc(Cl)c1Cl
  0.5	-1.8
- Cc1cnc(NC(=O)CSc2nnc(-c3ccccc3)n2Cc2ccccc2)s1
  0.22	-0.18
- S=C(NCc1ccco1)Nc1ccc(Cl)cc1
  4.1	0.8
- COc1ccc2cc(C3CC(c4ccco4)=NN3S(=O)(=O)c3ccccc3)c(Cl)nc2c1 (stereo not drawn)
  0.14	-0.88
- O=C(Nc1ccc(CCC(=O)N2CCCC2)cc1)c1ncn[nH]1
  0.66	0.21
- Cc1cc(C)c2c(CN3CCOCC3)cc(=O)oc2c1
  0.43	2.9
- Cc1ccc(S(=O)(=O)N2CCCCC2CCNC(=O)C(=O)Nc2ccccc2F)cc1 (stereo not drawn)
  0.29	-0.67
- CCc1nc(SCc2ccc(C(=O)OC)o2)n[nH]1
  2	-0.83
- CC1(C)Oc2ccc3ccc(=O)oc3c2/C(=C/Nc2ccccn2)C1=O
  1.5	0
- O=S(=O)(NCCc1c[nH]c2ccccc12)c1ccccc1
  1.4	0.13

Part of the list above, field by field:
> Cc1ccccc1OCc1nnc(SCC(=O)O)n1-c1ccccc1
  KCNQ2 pot: 0.78	KCNQ2 pot baseline: -0.01
> Cc1ccc(NC(=O)N2CCN(C(=O)c3ccco3)CC2)cc1Cl
  KCNQ2 pot: 0.17	KCNQ2 pot baseline: -1.4
> Cc1ccc(NC(=O)Nc2cc(-c3ccccc3)nn2C)cc1Cl
  KCNQ2 pot: 0.9	KCNQ2 pot baseline: 0.19
> Cc1nn(-c2ccccc2)c(C)c1C(=O)OCC(=O)NC(=O)NC1CCCCC1
  KCNQ2 pot: 0.36	KCNQ2 pot baseline: 0.25

Arranged by number of heavy atoms (ascending): 3 of the compounds above
The line under a structure holds: KCNQ2 pot	KCNQ2 pot baseline
- CCc1nc(SCc2ccc(C(=O)OC)o2)n[nH]1
  2	-0.83
- CN(C)c1ccc(N=Nc2ccc(C(=O)O)cc2)cc1
  0.57	-1.2
- Cc1nn(-c2ccccc2)c(C)c1C(=O)OCC(=O)NC(=O)NC1CCCCC1
  0.36	0.25

Additional structures
The line under a structure holds: KCNQ2 pot	KCNQ2 pot baseline
- CS(=O)(=O)N(CC(=O)Nc1ccccc1C(=O)NCc1ccco1)c1ccccc1F
  0.58	0.1
- Nc1nc(SCC(=O)c2cccc([N+](=O)[O-])c2)n[nH]1
  0.95	0.58
- Cn1c(=O)c2c(nc(CN3CCN(c4ccc(F)cc4)CC3)n2CCN2CCOCC2)n(C)c1=O
  0.68	0.11
- Cc1ccc([N+](=O)[O-])cc1NC(=O)CCc1ccccc1
  0.33	0.35
- O=[N+]([O-])c1c(Nc2ccccc2O)cc(N2CCOCC2)c2nonc12
  1.6	1.4
- CC(C)CC(=O)c1c[nH]c(C(=O)NCc2cccs2)c1
  1.6	-0.26
- Cc1noc(N)c1C1(O)C(=O)Nc2c(Cl)cc(Cl)cc21 (stereo not drawn)
  0.91	-0.07
- Cc1ccccc1N1C(=O)C(Cl)=C(N2CCOCC2)C1=O
  0.17	0.03
- COc1cccc(CC(=O)OCC(=O)Nc2nnc(-c3ccccc3)o2)c1
  0.3	0.17
- COCCNS(=O)(=O)c1cccn1-c1ncc(C(F)(F)F)cc1Cl
  0.86	-0.45
- CC1CCCCC1NC(=O)CN(C)S(=O)(=O)c1ccc2c(c1)c(=O)n(C)c(=O)n2C (stereo not drawn)
  0.17	0.07
- CCOC(=O)/C(C#N)=C(\N)C(C)C(=O)Nc1ccccn1 (stereo not drawn)
  0.66	0
- O=S(=O)(NCC1CCCO1)c1ccc(NS(=O)(=O)c2ccc(F)cc2)cc1 (stereo not drawn)
  0.18	0.03
- CCOc1ccc(-n2c(=O)cc(N3CCN(c4ccc(F)cc4)CC3)[nH]c2=O)cc1
  0.24	-0.5
- O=C(CCN1CCC(c2cccs2)=N1)c1cccs1
  1	-1.5
- COc1ccc(NS(=O)(=O)c2cc(NC(=O)c3cnccn3)ccc2OC)cc1Br
  1.4	-1.3
- COc1ccc(-n2c(SCC(N)=O)nc3sc4c(c3c2=O)CCC4)cc1
  0.01	5.3
- Cc1cnc(C(=O)NCCc2ccc(C(F)(F)F)cc2)cn1
  0.11	-0.85
- NS(=O)(=O)c1cccc(NC(=O)COC(=O)CN2C(=O)C3CC=CCC3C2=O)c1 (stereo not drawn)
  0.8	0.01
- COc1cc(CNc2nnnn2C)cc(OC)c1OC
  0.43	-0.18
- COCCn1cc(C(=O)c2cc(Br)ccc2O)cc(C#N)c1=O
  0.08	-1.6
- COc1ccc(-n2c(O)cnc2Nc2nc(C)cc(C)n2)cc1OC
  0.87	0.32
- COc1ccc(CC(=O)NNC(=O)CSc2nc(C)c(C)c(=O)[nH]2)cc1
  0.2	0.02
- Cc1cc(C(F)(F)Cl)n2ncc(-c3ccccn3)c2n1
  1.8	-0.15
- Cc1ccc(S(=O)(=O)N2CC3CCC2C3)cc1 (stereo not drawn)
  0.1	0.18
- COc1cccc(C(=O)NCCCN2CCN(CCCNC(=O)c3cccc(OC)c3)CC2)c1
  0.26	1.1
- Cc1ccc(-n2nc3c(=O)n(CCCC(=O)NCc4ccco4)nc(C)c3c2C)cc1
  0.57	-2.2
- COc1cc2c(cc1OC)-c1nnc(-c3ccco3)n1C1(CCCC1)C2
  0.41	-0.49
- CC(=O)c1cccc(NC(=O)c2cc(-c3ccc(C)cc3)on2)c1
  0.03	0.94
- COc1ccc(CN2CCC(N3CCC(C(=O)N4CCOCC4)CC3)CC2)c(F)c1
  0.23	-0.14

(more compounds)
The line under a structure holds: KCNQ2 pot	KCNQ2 pot baseline
- Cc1ncoc1C(=O)N1CCCC(CCC(=O)NCc2ccc(F)c(F)c2)C1 (stereo not drawn)
  0.67	0.14
- CCC(C)[C@H](N)c1nnc(SCC(=O)Nc2ccc(C)cc2C)o1 (stereo partly drawn)
  0.01	-1.8
- O=S(=O)(Nc1ccccc1)c1ccc2c(c1)CCO2
  2.3	0.41
- Cc1ccc2oc(=O)c3cnn(CC(=O)NC4CCCCC4C)c3c2c1 (stereo not drawn)
  0.65	-0.62
- Cc1cc(C(=O)COC(=O)CCC(=O)c2ccc3c(c2)OCCO3)c(C)n1Cc1ccco1
  0.36	-1.1
- CCOC(=O)c1cnc(-n2nc(C)cc2C)nc1Oc1ccccc1F
  1.3	-0.86
- CCCOc1ccc(C(=O)NCCC(=O)NCCCC(=O)OCC)cc1
  0.97	-0.96
- CNC(=O)/C(C#N)=C/c1c(N2CCN(c3ccc(OC)cc3)CC2)nc2c(C)cccn2c1=O
  1.1	0.08
- O=[N+]([O-])c1ccc2c(c1)nc(CO)n2Cc1ccccc1
  0.12	-1.4
- O=C(CSc1nnc(Cc2cccs2)n1-c1ccccc1)NC1CCCCC1
  0.74	0.3
- Cc1ccn2cc(-c3cccc(NS(C)(=O)=O)c3)nc2c1
  0.16	1.3
- N/C(=N\OC(=O)c1ccc(Br)o1)c1cccnc1
  0.52	2.3
- C/C(=N/NC(=O)c1ccco1)c1cccnc1
  1	1
- O=C1/C(=C/c2cccs2)CCc2ccccc21
  0.01	0.24
- CSc1nc2ccc(NC(=O)c3nn(C(C)C)c(=O)c4ccccc34)cc2s1
  1.7	-1.9
- CC(=O)Nc1ccc(C(=O)OCCCOC(=O)c2ccc(NC(C)=O)cc2)cc1
  0.98	-0.02
- CCOC(=O)N1CCN(C(=O)/C=C/c2ccc3c(c2)OCO3)CC1
  0.6	0.92
- O=S(=O)(c1ccc(Cl)cc1)N1CCN(c2ccc(N3CCOCC3)nn2)CC1
  1.4	0.65
- CN1CCc2c(sc3c2C(=O)NC(/C=C/c2ccco2)N3)C1 (stereo not drawn)
  1.4	-1.1
- Cc1nn(-c2ccccc2)c(OC(=O)c2cccs2)c1S(=O)(=O)c1ccc([N+](=O)[O-])cc1
  0.81	0.61
